# Bioassay records (PubChem BioAssay)
# PINK1 expr mod = A Quantitative High throughput Screen to Identify Chemical Modulators of PINK1 Expression; AID 624263, 2012; 410,000 tested, 0.2% active; PINK1 immunofluorescence, high-content cytometry, 24 h; Potency, µM (top dose mostly 76.6 µM), for inactives: at the highest dose activation (PINK1 increase), hits mostly activators; active = well fitted activation curve with a large enough effect; inconclusive = small, poorly fitted or top-dose-only effect; inactive = flat fitted curve, though single readings scatter; cell line not stated here;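 note: potency is the fitted concentration of half-maximal effect; % of control where 0% means no effect; nearly all actives have a fitted effect of over 65% in size; a mitochondrial uncoupler was the plate control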
#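 Stable cell line, 250 cells/well, 12 h attachment; compounds pinned at 5 concentrations, 24 h; CCCP control. Fixed with nuclear dye, primary antibodies 12 h at 10 degrees C, secondary plus cell stain; laser-scanning cytometer read.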
# Menin-MLL FL inh = qHTS Assay for Inhibitors Targeting the Menin-MLL Interaction in MLL Related Leukemias: Competition With Fluorescein Labeled MLL-derived Peptide; Fluorescence polarization, fluorescein-MLL peptide displacement from menin; FP activity change, % at 61.4 µM; 290,000 tested, under 10 active; AID 1766, 2009; inconclusive = falling polarisation curve, or a change in total fluorescence; inactive = total fluorescence flat and polarisation flat or rising; no compound was filed as active; the % refers to the polarisation; negative = inhibition;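 note: % of control where 0% means no effect; inhibitors lower the polarisation; unlabelled MLL peptide was the positive control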
# TRPV1 PAM = HTS Assay for Compounds that Act as Potentiators of the Vanilloid Receptor 1. TRPV1-expressing cells, Fluo-8 calcium influx, capsaicin EC20 potentiation; host cell line not named in the record; control for the full effect not named in the record. AID 540277, 2011. 320,000 tested, 0.02% active. potentiation, % at 8.33 µM. Transient receptor potential cation channel subfamily V member 1 (Homo sapiens), Q8NER1; active means potentiation above 80%; inconclusive means 30% to 80%; inactive means below 30%; note: 0% is about no effect
# Target sequence (Q8NER1 whole entry, looked up): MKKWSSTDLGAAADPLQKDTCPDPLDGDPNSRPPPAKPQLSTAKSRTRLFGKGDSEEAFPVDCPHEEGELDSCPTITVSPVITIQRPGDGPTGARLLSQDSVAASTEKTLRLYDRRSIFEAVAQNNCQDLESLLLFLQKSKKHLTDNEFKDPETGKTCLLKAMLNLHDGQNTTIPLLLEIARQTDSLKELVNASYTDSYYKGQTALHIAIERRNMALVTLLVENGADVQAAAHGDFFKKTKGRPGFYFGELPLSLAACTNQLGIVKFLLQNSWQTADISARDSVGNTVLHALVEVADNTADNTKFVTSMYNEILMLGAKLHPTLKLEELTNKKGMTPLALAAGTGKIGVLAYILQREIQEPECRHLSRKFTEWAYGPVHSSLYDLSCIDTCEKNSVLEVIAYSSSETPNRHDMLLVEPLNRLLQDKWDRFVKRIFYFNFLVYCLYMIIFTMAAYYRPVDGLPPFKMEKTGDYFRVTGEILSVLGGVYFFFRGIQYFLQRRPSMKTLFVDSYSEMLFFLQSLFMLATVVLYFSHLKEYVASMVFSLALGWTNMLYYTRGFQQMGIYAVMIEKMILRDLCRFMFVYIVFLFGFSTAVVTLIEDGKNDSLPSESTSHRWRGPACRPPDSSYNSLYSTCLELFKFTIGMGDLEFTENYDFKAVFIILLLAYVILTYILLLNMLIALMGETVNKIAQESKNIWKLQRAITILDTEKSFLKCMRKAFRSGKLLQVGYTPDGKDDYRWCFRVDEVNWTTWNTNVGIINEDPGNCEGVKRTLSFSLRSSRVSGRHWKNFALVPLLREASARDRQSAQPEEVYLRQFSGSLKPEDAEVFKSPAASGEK
#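 Fluo-8 calcium influx in TRPV1-expressing cells, kinetic read (ex 480/em 520 nm). Compound added and read 3 min for agonist activity, followed by capsaicin at EC20 final and 2 min further read for enhancement.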
# TRPML1 ag = qHTS for Agonists of the Human Mucolipin Transient Receptor Potential 1 (TRPML1); activation, % (test concentration not listed); AID 624414, 2012; TRPML1-expressing cells, Ca2+ dye fluorescence, FDSS; host cell line not named in the record; reference of the full effect not given here; 410,000 tested, 0.12% active; in the data active = activation above about 50%; inconclusive = about 30% to 50%; inactive = below about 30%; note: 0% is about no effect; the text of the record puts the active cut at 80%
#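 Cells: TRPML1-DL, 1X Tet inducer, ~16 h at 37 degrees C/5% CO2. Dye: ABD Ca8 no-wash + quencher, 45-90 min RT. Read: 10 s baseline, compound add, 110 s agonist phase; 54-4 EC80 (4uM final), 110 s antagonist phase.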
# TRPML1 blocker = qHTS for Inhibitors of the Human Mucolipin Transient Receptor Potential 1 (TRPML1) | Mucolipin-1 (Homo sapiens), Q9GZU1 | TRPML1-inducible cells, Ca2+ dye fluorescence, FDSS; hits give low values; inhibition of EC80 agonist-evoked calcium signal | activity change, negative = inhibition, % (test concentration not listed) | 390,000 tested, 0.02% active; in the data active means activity change below about -50%; inconclusive means about -30% to -50%; inactive means above about -30%;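 note: stimulus is agonist 54-4 at its EC80 concentration; % is set by controls: 0 for no effect and ±100 for the full control effect; compound concentration not given in the record; the text of the record puts the active cut at -80%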
#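 Calcium fluorescence in TRPML1-DL cells induced overnight with Tet: a 110 s read after compound pin addition, then a 110 s antagonist read after challenge with 54-4 at 4 uM final (EC80).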
# Sfp PPTase inh = qHTS Assay for Inhibitors of Bacillus subtilis Sfp phosphopantetheinyl transferase (PPTase); 310,000 tested, 3.5% active; 4'-phosphopantetheinyl transferase ffp (Bacillus subtilis), Q9F4F7; AID 1490, 2009; Biochemical Sfp PPTase activity, qHTS; Potency, µM, without a hit: max response, negative = inhibition, hits mostly inhibitors; active = well fitted inhibition curve with a large enough effect; inconclusive = small, poorly fitted or top-dose-only effect, or another doubt; inactive = no such curve, though single readings can be large or run the other way;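 note: the enzyme is Sfp with the accession as filed and its product quenches rhodamine fluorescence; potency is the fitted concentration of half-maximal effect; 0% = enzyme reaction without inhibitor and -100% = no enzyme wells; top concentration of the series not given in the record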
#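 Step 1, compound plus 15 nM Sfp-PPTase, 15 min, room temperature. Step 2, add rhodamine-CoA (5 uM) and BHQ-2-YbbR (12.5 uM). Step 3, read 525/598 nm fluorescence at 0 and 30 min.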
# ClpP mod = qHTS Assay for Activators of ClpP; ATP-dependent Clp protease proteolytic subunit (Bacillus subtilis (strain 168)), P80244; purified B. subtilis ClpP, FRET peptide cleavage, 20 min; 340,000 tested, 1.9% active; AID 651965, 2013; Potency, µM (doses to about 57.5 µM), for inactives: top-dose activity change, negative = active; active = well fitted falling curve with a large enough effect; inconclusive = small, poorly fitted or top-dose-only effect; inactive = no such curve, though single readings can be large or run the other way; note: potency is the fitted concentration of half-maximal effect; the source files actives as falling curves though it sought activators and does not explain the sign; nearly all actives have a fitted effect of over 65% in size; many hits overshoot -100%
# Target sequence (P80244 whole entry, looked up): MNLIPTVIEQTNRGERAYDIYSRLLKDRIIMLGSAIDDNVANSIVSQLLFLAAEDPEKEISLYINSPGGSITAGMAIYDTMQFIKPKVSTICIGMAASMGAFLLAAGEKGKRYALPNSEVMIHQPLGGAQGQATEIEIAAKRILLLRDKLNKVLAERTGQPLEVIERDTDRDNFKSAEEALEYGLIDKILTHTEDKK
#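 Buffer: 100 mM Tris/HCl pH8, 100 mM KCl, 0.05% low protease BSA, 2.5% glycerol, 0.01% Tween-20. ClpP 10 microg/mL final; 20 min RT; delta FRET normalized to ADEP and DMSO controls.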
# The depositor's hits bear a star; ? = inconclusive; nt = not tested or not shown; & = joins results of further samples; [ ] = remark or other dose.
SMILES,PINK1 expr mod,Menin-MLL FL inh,TRPV1 PAM,TRPML1 ag,TRPML1 blocker,Sfp PPTase inh,ClpP mod
CCN(C(=O)COC(=O)c1ccccc1NC(=O)c1ccco1)C1CCS(=O)(=O)C1 (configuration not stated),2.4%,-0.4,-14,0.0,-14,-11%,-0.7%
CCN1CCN(CCC(=O)Nc2ccc3c(c2)OCO3)CC1,-2.3%,-1.4,1,0.0,7,3%,-10%
Cc1cc(Cn2nc(-c3ccccc3)cc2C(=O)NCc2cccc(Br)c2)on1,0.6%,nt,12,3.9,32,nt,-9.3%
CCOC(=O)CN(C(=O)CNC(=O)c1ccco1)C(C(=O)NC1CCCC1)c1ccccc1OCC (configuration not stated),-1.6%,4.3,18,3.3,10,20%,0.3%
COc1ccccc1NC(=S)NC(=O)Cc1ccc(Cl)cc1,5.5%,-1.3,-10,24,-11,23%,nt
Cc1ccc(C(=O)c2cn(CC(=O)Nc3ccc(C)cc3Cl)c3nc(C)ccc3c2=O)cc1,-0.8%,nt,nt,2.2,6,nt,-2.5%
COc1ccc(/C=N/NC(=O)c2cccc(NC(C)=O)c2)c(OC)c1,0.5%,1.0,4,0.3,-4,2%,nt
Cc1cc(C(=O)CSc2nc3ccc(Cl)cc3[nH]2)c(C)n1Cc1ccco1,0.0%,nt,nt,-0.4,-8,nt,-3.1%
O=C(NCCc1ccc(Cl)cc1)C1(c2cccs2)CCOCC1,4.2%,nt,nt,-0.5,-4,nt,2.6%
Cc1ccc(NC(=O)NCCCN2CCCC2=O)cc1C,1.8%,-2.8,3,0.1,0,4%,-1.1%
Cc1ccc(CNC(=O)CCC2CCCN(Cc3cccc4cccnc34)C2)o1 (configuration not stated),-0.2%,-7.9,5,0.0,-24,-15%,nt
CCOC(=O)Cc1csc(NS(=O)(=O)c2cccc([N+](=O)[O-])c2)n1,0.3%,-5.8,3,0.4,27,8%,-2.0%
Cc1ccccc1N/N=C/c1ccc(C#N)cc1,-1.8%,2.8,0,-0.2,12,12%,4.2%
COc1cccc(NC(=O)CNC(=O)Cn2cnc3sc4c(c3c2=O)CCCC4)c1,1.9%,4.7,20,-0.4,5,8%,-0.4%
O=C(CSc1nccn1C1CCCC1)Nc1cccc(F)c1,-0.7%,nt,nt,3.6,21,nt,-2.7%
CCOCCCN1CC(C(=O)NCCc2ccc(C)cc2)CC1=O (configuration not stated),1.3%,0.8,0,-0.7,-5,9%,-1.2%
CC(=O)Nc1ccc(/C=N/OCC(=O)Nc2ccc(C)cc2)cc1,2.7%,3.3,-6,-0.1,-6,17%,0.4%
Cc1ccccc1C(=O)Oc1ccc(Sc2ccc(O)cc2)cc1,nt,3.8,-14,nt,nt,-6%,nt
Cc1cc(O)c(C2(O)C(=O)Nc3cc(Br)ccc32)cc1C (configuration not stated),4.1%,11,?,0.9,?,3%,-4.8%
CCOC(=O)CSc1nc2cc(C(=O)N3CCCC3)ccc2c(=O)n1Cc1ccccc1,-1.6%,-1.6,17,2.7,22,-23%,-8.3%
O=C(C1CCCN(CCCc2ccccc2)C1)N1CCCCC1 (configuration not stated),0.8%,1.6,-7,-0.4,3,-21%,1.3%
Cc1ccc(C(=O)Nc2cccc(NC(=O)c3cccnc3)c2)cc1,1.3%,10,0,-0.6,-2,14%,nt
COC(=O)c1cc(-c2ccc(OC)c(OC)c2)c2c(=O)[nH]c(=O)n(C)c2n1,1.8%&5.5%,-11,-9,2.4,-21,0%,45%&62%
CCNC(=O)C1(C)CCCN(Cc2cc(-c3ccccc3)n(C)n2)C1 (configuration not stated),0.7%,nt,nt,-0.4,-16,nt,-0.7%
C/C(=N/NC(=O)CSc1nc2ccccc2n1C)c1ccc(O)cc1,3.5%,-1.9,-6,-1.1,-11,-12%,nt
Cc1ccc(CN2C(=O)CCC2C(=O)NC(C)C)cc1 (configuration not stated),0.4%,1.4,-32,-0.1,1,-9%,-1.0%
COc1ccc(CN(C(=O)c2ccco2)c2ccc(Br)cc2)cc1OC,-0.8%,1.5,-8,-0.3,-2,7%,0.7%
CCn1cc(C(=O)Nc2ccccc2C(=O)OC)cn1,0.5%,nt,nt,0.5,-8,nt,-7.1%
COc1ccc(-c2c(-c3ccsc3)oc3c2C(O)CCC3)cn1 (configuration not stated),-0.2%,nt,nt,-0.9,nt,nt,-21%
COc1cc(OC)cc(C(=O)Nc2cc3c(cc2N2CCOCC2)n(C)c(=O)n3C)c1,0.3%,nt,nt,-0.8,-8,nt,-11%

# The closing two records of the section above are carried over, then new ones follow.
SMILES,PINK1 expr mod,Menin-MLL FL inh,TRPV1 PAM,TRPML1 ag,TRPML1 blocker,Sfp PPTase inh,ClpP mod
COc1ccc(-c2c(-c3ccsc3)oc3c2C(O)CCC3)cn1 (configuration not stated),-0.2%,nt,nt,-0.9,nt,nt,-21%
COc1cc(OC)cc(C(=O)Nc2cc3c(cc2N2CCOCC2)n(C)c(=O)n3C)c1,0.3%,nt,nt,-0.8,-8,nt,-11%
Cc1ccc(-c2cc(C(=O)N(C)Cc3cnn(C)c3C)c3cc(Br)ccc3n2)cc1,-1.3%,5.8,4,-0.2,?,-11%,-20%
CC1CCCN(CC(=O)Nc2ccc(S(=O)(=O)N3C(C)CCCC3C)cc2)C1 (configuration not stated),0.4%,nt,nt,-1.0,-1,nt,1.7%
CCn1c(Cc2cccs2)nnc1SCC(=O)NC1CC1,-1.7%,nt,13,-0.3,-5,34%[activator],-5.0%
Cc1ccc(OC(=O)N2CCOCC2)cc1,0.4%,0.3,3,0.2,-9,15%,0.4%
COc1ccc(NC(=O)C2CCCN2S(=O)(=O)c2cccc3cccnc23)cc1OC (configuration not stated),0.2%&1.4%,nt,10,0.7&-0.5,-14&8,1%,0.0%&-1.0%
Cc1ccc(NC(=O)Nc2nnc(N3CCCC3)s2)cc1C,-0.3%,nt,nt,-0.4,-5,nt,-4.3%
O=C(COC(=O)C1CCC(=O)N1)Nc1ccc(Cl)cc1Cl (configuration not stated),-0.3%,0.1,-1,1.4,-15,11%,-2.5%
C=CCNC(=S)Nc1ccc2nc(C)oc2c1,-1.1%,0.1,-24,-0.4,-16,8%,nt
Cc1ccc(NC(=O)c2ccccn2)c(Br)c1,3.1%,-1.2,0,0.0,4,-27%,-0.3%
CCOc1ccccc1C1CC(c2ccc(Br)cc2)Nc2nc(N)nn21 (configuration not stated),1.5%,7.9,17,-0.1,-14,-27%,-7.5%
Cn1c(N)c(C(=O)COC(=O)c2ccc(Cl)nc2)c(=O)n(C)c1=O,1.8%,-3.7,16,-0.5,11,11%,nt
CC(C)(C)C(=O)/C=c1\[nH]c(=O)/c(=C\c2ccc(F)cc2)s1,?,4.1,-22,1.6,20,-14%,?
CCC(=O)N1CCc2cc(S(=O)(=O)NC(Cc3ccccc3)C(=O)NCc3ccc(C)cc3)ccc21 (configuration not stated),0.4%,nt,nt,2.8,-7,nt,-1.5%
CCC1CCCCN1Cc1nc(Cc2ccccc2Cl)no1 (configuration not stated),15%,-1.5,0,1.3,20,10%,nt
CN(C)CCN1C(=O)NC(C)(c2ccc([N+](=O)[O-])cc2)C1=O (configuration not stated),0.4%,1.9,?,0.0,5,5%,nt
CCOC(=O)N1CCC(n2c(SCC(=O)Nc3nccs3)nc3ccsc3c2=O)CC1,9.4%[38.3 µM],3.0,-12,3.0,17,-28%,-1.9%
O=C(NCc1ccc(F)cc1)C1CCN(S(=O)(=O)N2CCCCC2)CC1,?,0.0,-23,0.0,7,0%,-3.6%
CCN(CC)C(=O)Cn1c(=O)n(CC2CCC(C(=O)NC)CC2)c(=O)c2sccc21 (configuration not stated),1.0%,nt,nt,-0.3,2,nt,1.3%
O=C(Nc1ccc2c(c1)CCC2)c1ccccc1Br,3.1%,2.4,-10,-0.1,11,4%,0.2%
Cc1cccc(C(=O)Nc2cccc(OCC(=O)O)c2)c1,1.2%,-1.4,5,-0.5,1,6%,nt
CCC(C(=O)NCCCN1CC(C)CC(C)C1)n1ncn2c(cc3occc32)c1=O (configuration not stated),-1.7%,1.4,0,-1.5,2,11%,-0.3%
CCc1ccc(NC(=O)c2cc(S(=O)(=O)N3CCCC3)ccc2F)cc1,9.0%&-0.6%,nt,nt,-0.2&1.4,-7&11,nt,1.3%&0.4%
CCCc1ccc(C(=O)NNc2ccccc2F)cc1,3.7%,-1.2,-20,-1.3,21,2%,1.0%
COc1cc2[nH]c(=O)n(CCC(=O)N3CCN(Cc4ccccc4)CC3)c(=O)c2cc1OC,3.0%,0.7,8,-0.6,17,-7%,nt
Cc1c(Cl)cccc1NC(=O)C1CCN(c2nc3ccccc3[nH]2)CC1,-1.8%,nt,nt,1.2,-7,nt,-3.2%
COc1ccccc1/C=C/C(=O)NCCC1=CCCCC1,-0.6%,5.0,-5,1.8,30,-22%,nt
O=C(O)CCCNS(=O)(=O)c1ccc2c(c1)OCCCO2,-0.9%,2.6,-3,0.6,-2,20%,-1.2%
CCOC(=O)c1cnc(-n2nc(C)cc2C)nc1Oc1ccc(C#N)cc1,-0.5%,-2.1,5,0.2,-3,26%,nt
Cc1cc(Nc2cccc(Br)c2)n2c(nc3ccccc32)c1C#N,?,nt,nt,3.6,6,nt,-7.8%
Cc1cc(Nc2ccc(Cl)cc2)nc(N)n1,-1.5%,-0.4,-3,-0.4,9,16%,-1.1%
COc1ccc(C(C)=O)cc1CSc1nc2ccccc2c(=O)n1-c1ccccc1C,9.6%,nt,11,0.3,19,13%,-2.0%
COc1ccc(OC)c(C2=NOC(C(=O)NCc3cccnc3)C2)c1 (configuration not stated),12%,-6.8,11,-1.3,-4,9%,0.3%
O=C(CCn1cnc2ccccc2c1=O)Nc1cccc(Cl)c1,-1.2%,3.9,5,-0.2,4,25%,-1.4%
